LANA-H2A inh: blocks KSHV LANA binding to histone H2A/H2B; AID 2629; Q9QR71; inhibition, % (test concentration not listed); hit rate 0.6% among 320,000; cell-free LANA-H2A/H2B peptide, fluorescence polarization; in the data active = inhibition mostly above about 10%, no sharp cut-off; inactive = mostly below about 6.7%;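 also: stock transfer was 7.5 nL into about 10 µL; 0% = median of vehicle wells and 100% = median of positive control wells; one replicate is shown; the record names a cut of 25% in any replicate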
ALR H2O2 inh: blocks human ALR sulfhydryl oxidase activity | purified ALR, DTT oxidation, H2O2 HRP-luminol luminescence | inhibition, % (concentration not given with the values) | hit rate 3.8% among 290,000 | AID 485317;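 active = mean and each replicate at 75% or more; inconclusive = only one of the two met; inactive = neither met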;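 also: stock transfer was 7.5 nL into about 7.5 µL; 0% = neutral wells and 100% = wells with inactivated enzyme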
Target sequence (P55789 whole entry, looked up): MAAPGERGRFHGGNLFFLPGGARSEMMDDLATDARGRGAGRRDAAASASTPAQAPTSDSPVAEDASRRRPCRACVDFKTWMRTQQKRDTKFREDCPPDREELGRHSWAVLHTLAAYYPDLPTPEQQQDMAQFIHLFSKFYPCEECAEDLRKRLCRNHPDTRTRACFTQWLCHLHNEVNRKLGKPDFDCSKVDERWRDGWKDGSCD
Calb FLC: C. albicans growth modulation with fluconazole | growth inhibition, % (test concentration not listed) | hit rate 0.57% among 300,000 | C. albicans CaCi-2 (fluconazole-resistant clinical isolate) + fluconazole, Alamar Blue growth, 48 h;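 active = most replicates above 75%; inconclusive = exactly half above 75%; inactive = most below 75%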;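 also: all wells also contain fluconazole at 8 µg/ml as a sub-toxic cotreatment; 0% = median of DMSO wells and 100% = median of geldanamycin control wells; wells of about 8 µL received 7.5 nL stock; the first replicate is given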
Vif A3G: inhibitors of Vif binding to APOBEC3G peptide, primary screen, biochemical, TR-FRET, GST-Vif 1-94, biotin-A3G peptide, dose response retest (AID 1117319); hit rate 0.57% among 260,000; inhibition, %, or IC50 in µM where a hit was titrated; TR-FRET GST-Vif / biotin-A3G peptide binding; higher % means a stronger effect; test concentration not given here; strong numbers were not always called active;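 active = above the screen mean plus three standard deviations and confirmed in dose response; inconclusive = results disagree or hit not tested in dose response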;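 also: Vif residues 1-94 fused to GST binding biotinylated APOBEC3G peptide 110-148; 0% = full assay without inhibitor and 100% = GST in place of GST-Vif; retest series ran down from 100 µM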
Beta2AR agonist: human beta-2 adrenergic receptor agonism by FAP. hit rate 0.43% among 340,000. response, % (test concentration not listed). Am2.2-beta2AR cells, FAP receptor internalization, flow cytometry; reference of the scale not given here;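 active = response above a set limit, near 3 SD of response in nonfluorescent compounds, cut at about 42% in these data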;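 also: stock transfer was 100 nL into about 11 µL; a reference agonist was the positive control; negative values mostly stem from fluorescent compounds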
Target sequence (P07550 whole entry, looked up): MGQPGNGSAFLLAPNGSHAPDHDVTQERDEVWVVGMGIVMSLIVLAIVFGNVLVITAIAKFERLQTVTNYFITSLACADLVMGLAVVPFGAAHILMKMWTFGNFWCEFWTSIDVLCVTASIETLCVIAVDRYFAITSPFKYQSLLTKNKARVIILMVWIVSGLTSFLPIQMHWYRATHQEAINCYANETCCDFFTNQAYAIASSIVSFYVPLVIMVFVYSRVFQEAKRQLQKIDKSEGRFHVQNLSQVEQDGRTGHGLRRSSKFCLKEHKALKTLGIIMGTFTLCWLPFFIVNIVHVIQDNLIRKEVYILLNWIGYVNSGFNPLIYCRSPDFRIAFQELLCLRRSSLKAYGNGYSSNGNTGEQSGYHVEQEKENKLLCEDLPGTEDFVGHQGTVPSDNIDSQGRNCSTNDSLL
HNF4A DNA FP: change in binding of human HNF4 alpha to DNA. activity change, % at 10 µM. HNF4a-FITC DNA binding, fluorescence polarization, 1 h. hit rate 0.3% among 360,000. P41235; in the data active = activity change above about 30%, passing the limit was not always enough;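 also: controls were the assay level and a saturating level of protein; the project sought stronger binding though the title names inhibitors; some compounds called inactive have numbers as strong as hits; positive values seem to mean higher polarization but the record does not say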
Target sequence (P41235 whole entry, looked up): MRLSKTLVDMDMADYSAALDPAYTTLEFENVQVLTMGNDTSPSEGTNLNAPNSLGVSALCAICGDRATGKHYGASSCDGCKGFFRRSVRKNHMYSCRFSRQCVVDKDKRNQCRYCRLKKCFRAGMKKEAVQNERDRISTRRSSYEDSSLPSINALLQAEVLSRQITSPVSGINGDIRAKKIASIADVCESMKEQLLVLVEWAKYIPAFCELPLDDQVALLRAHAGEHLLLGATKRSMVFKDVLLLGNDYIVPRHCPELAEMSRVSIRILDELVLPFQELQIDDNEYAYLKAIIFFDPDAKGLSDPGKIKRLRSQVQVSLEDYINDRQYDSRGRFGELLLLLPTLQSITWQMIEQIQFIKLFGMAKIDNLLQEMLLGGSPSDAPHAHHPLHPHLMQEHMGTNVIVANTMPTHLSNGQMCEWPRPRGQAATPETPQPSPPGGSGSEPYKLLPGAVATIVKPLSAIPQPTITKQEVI
RanGTP-Impb inh: disruptors of Ran-importin-beta complex formation – biochemical, FRET, CFP-Ran, YFP-importin-beta, homogeneous, primary screen | cell-free CFP-Ran/YFP-importin-beta FRET ratio | inhibition, % (concentration not given with the values) | hit rate 1.1% among 300,000 | AID 2216;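 active = most replicates above 15%; inconclusive = exactly half above 15%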;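 also: 0% = DMSO wells and 100% = Ran loaded with GDP instead of GTP; wells of about 40 µL received 100 nL stock; the first replicate is given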
Starred values were filed as active, the others as inactive; i = inactive; u = inconclusive; x = not tested or not shown.

SMILES | LANA-H2A inh | ALR H2O2 inh | Calb FLC | Vif A3G | Beta2AR agonist | HNF4A DNA FP | RanGTP-Impb inh
C/C(=N\NC(=O)COc1ccc(C(C)(C)C)cc1)c1ccc(-n2ccnc2)cc1 | -0.8 | -6 | 6 | x | -10 | 3.5 | -4.7
Cc1ccc(-c2cc(C(=O)NN)n[nH]2)o1 | 12 | 51 | -5 | -11% | 4 | 3.5 | -4.0
CC(C(=O)N1CCN(C(=O)c2ccco2)CC1)n1sc2ccccc2c1=O (centres undefined) | 0.7 | -3 | -1 | x | -4 | -0.1 | -1.1
CC(C)n1nccc1N(Cc1ccc(Cl)cc1)S(=O)(=O)c1ccccc1 | -1.0 | x | 2 | 3% | 3 | -1.2 | 6.3
N#CCCN(C(=O)Nc1ccc(Cl)cc1)c1ccccc1 | -3.1 | -8 | 17 | 7% | -9 | -2.8 | 96*
O=C(Nc1ccc(-c2noc(-c3ccccc3F)n2)cc1)c1cccs1 | 1.7 | -7 | 0 | -52% | 3 | -1.1 | 1.5
COc1ccc(N=C2S/C(=C\c3ccc(Cl)c([N+](=O)[O-])c3)C(=O)N2CCN(C)C)cc1 | -0.2 | x | -1 | 5% | 34 | 1.7 | 0.8
O=C(c1cnccn1)N1CCN(c2ccccc2F)CC1 | 1.6 | -3 | 4 | 10% | 1 | -1.5 | 2.2
c1ccc2[nH]c(SCc3cscn3)nc2c1 | 1.1 | x | 4 | 2% | -11 | -1.0 | -2.2
CCOc1cccc(N(C(=O)C2COc3ccccc3O2)C(C(=O)NC2CCCCC2)c2ccc(O)cc2)c1 (centres undefined) | -3.5 | 0 | 3 | x | 5 | 0.6 | -0.1
CC1CCCC(C)N1S(=O)(=O)c1ccc(NC(=O)c2ccccc2C(=O)N2CCOCC2)cc1 (centres undefined) | 3.1 | -3 | 7 | 9% | -7 | 0.5 | 1.6
COc1ccc(C(C(=O)NCC2CCCO2)N(C(=O)c2snc(C(N)=O)c2N)c2ccccc2C)cc1OC (centres undefined) | 5.8 | -4 | 3 | 6% | -7 | 1.6 | 0.6
CCOC(=O)N1CCN(CC(=O)Nc2sc(CC)cc2C(=O)c2ccc(OC)cc2)CC1 | -0.1 | -3 | 15 | 2% | 3 | -0.8 | 4.4
Cc1cccc(-n2ncc(C(=O)NC3CCCC3)c2C2CCN(C(=O)OC(C)(C)C)CC2)c1 | -0.8 | x | 11 | x | -3 | 1.1 | 0.2
COC(=O)Cc1csc(/N=C/c2c(O)n(-c3cccc(C(F)(F)F)c3)c(=O)c3ccccc23)n1 | -3.9 | -9 | 1 | x | 3 | 17 | u
N#CC1=C(N)Oc2n[nH]c(-c3cccs3)c2C1c1ccccc1C(=O)O (centres undefined) | -1.2 | 30 | 4 | -5% | 2 | -1.8 | 6.7
CC1(c2ccc(Cl)cc2)NC(=O)CS1 (centres undefined) | -1.9 | -2 | 16 | 18% | -6 | 0.5 | 5.7
Cc1cc(C)nc(NS(=O)(=O)c2ccc(NC(=O)c3ccc(N4C(=O)CCC4=O)cc3)cc2)n1 | -4.7 | 7 | -2 | x | -2 | -3.0 | 6.2
COc1cc(/C=C/C(=O)OCC(=O)N2CCCC2)cc(OC)c1OC | 0.5 | -6 | x | x | -7 | 1.9 | x
Cc1nn(C)c(C)c1CN(Cc1nc(-c2ccc(F)cc2F)oc1C)C1CC1 | 1.1 | 0 | 1 | -9% | -2 | 3.1 | 2.1
O=C(Cn1nnc(-c2ccc(Cl)cc2)n1)N1CCN(C(=O)c2ccco2)CC1 | 4.5 | x | x | -1% | -8 | -2.5 | x
Cc1cc(C)cc(NC(=O)C(NCC2CCCO2)c2ccccc2)c1 (centres undefined) | -1.0 | -4 | 2 | 0% | -8 | -1.4 | 0.5
CCCCN(Cc1ccccc1)S(=O)(=O)c1ccc2c(c1)n(C)c(=O)c(=O)n2C | 3.3 | -13 | 0 | -8% | 5 | -5.6 | -5.7
COc1ccc(C(=O)NC(=O)CSc2nc3nc(C)cc(C)n3n2)cc1 | -0.9 | -5 | x | x | 32 | 0.2 | x
CCN(CC)S(=O)(=O)c1ccc(N/N=C(\C)c2cccnc2)nc1 | 0.5 | -10 | -5 | 0% | 2 | -0.2 | 1.3

(continued)
SMILES | LANA-H2A inh | ALR H2O2 inh | Calb FLC | Vif A3G | Beta2AR agonist | HNF4A DNA FP | RanGTP-Impb inh
O=C(Nc1ccc2c(c1)C(=O)N(c1ccccc1)C2=O)c1cccs1 | 6.8 | -4 | 19 | -54% | -5 | 2.0 | -1.3
COC(=O)c1ccccc1Sc1ncnc2onc(C)c12 | 3.1 | 15 | 6 | 1% | 0 | 3.0 | 5.6
CCOC(=O)N(CC)OC(=O)Nc1ccc(Cl)cc1 | 2.8 | 16 | -2 | 0% | -10 | -2.8 | 0.2
CS(=O)(=O)N1CCN=C1SCc1ccc([N+](=O)[O-])cc1 | -6.5 | 99* | -9 | -1% | 3 | -1.1 | -4.3
O=C1CCCN2N=C(SCC(=O)Nc3ccc([N+](=O)[O-])cc3)SC2=N1 | 4.7 | x | 12 | x | -6 | -0.8 | 2.1
CCS(=O)(=O)Nc1ccc(C2=NN(C(=O)c3ccccc3)C(c3cccs3)C2)cc1 (centres undefined) | 0.3 | -2 | 13 | x | -4 | -0.1 | 1.5
COc1ccccc1C=CC(=O)C=Cc1ccccc1OC | x | x | x | 7% | 14 | 6.1 | x
COc1cc(C2C(C(=O)c3cccs3)=C(O)C(=O)N2CCN2CCOCC2)ccc1OCCC(C)C (centres undefined) | 0.0 | -1 | 34 | x | -4 | 4.0 | 5.8
O=C(c1ccc2c3c(cccc13)CC2)C1CCCN(C(=O)c2ccc[n+]([O-])c2)C1 (centres undefined) | 5.2 | -2 | 1 | 10% | 3 | -2.1 | 2.6
CCS(=O)(=O)Nc1cccc(-c2ccc3nnc(-c4cccnc4)n3n2)c1 | -3.6 | x | 6 | 3% | 13 | 3.4 | -1.2
O=C(O)C(Cc1ccccc1)N1Cc2ccccc2C1=O (centres undefined) | 2.1 | -4 | 0 | 0% | -2 | -2.8 | 7.7
COc1ccc(C(C)(C)C)cc1NC(=O)CCn1[nH]c(=O)ccc1=O | -0.1 | 10 | x | x | -1 | -1.6 | x
C=C1C(=O)OC2CC1C(O)CC(C)=CCCC(C)=CC(O)CC2C (centres undefined) | x | x | x | 1% | 0 | 1.7 | x
Cc1noc(C)c1COC(=O)c1ccccc1Oc1ccccc1 | 2.1 | -7 | -2 | 5% | 6 | -0.9 | -1.6
Cc1cc(C)cc(NC(=O)Cn2c(=O)oc3cc(S(=O)(=O)N4CC(C)CC(C)C4)ccc32)c1 (centres undefined) | 8.1 | -2 | -13 | 1% | 13 | 4.6 | 4.7
CS(=O)(=O)N(CC(=O)NCCSCc1ccccc1)c1ccccc1 | 3.3 | 0 | -13 | -7% | -6 | 1.1 | 1.1
O=C(c1ccc2c(c1)N(Cc1ccccc1)CCS2)N1CCOCC1 | -2.1 | 99* | 6 | x | -3 | -1.8 | 2.9
COc1ccc(-c2cc(C(=O)N3CCN(C(c4ccccc4)c4ccccc4)CC3)no2)cc1 | -6.7 | -5 | 19 | 0% | 6 | 3.0 | 6.5
CCOc1ccc(CN(C(=O)c2cccs2)C2CCS(=O)(=O)C2)cc1 (centres undefined) | 2.5 | 3 | -1 | x | -12 | -4.0 | 1.2
COc1cccc(-c2c(C(=O)N/N=C/c3ccsc3)nnn2-c2nonc2N)c1 | 4.7 | -7 | -3 | x | -19 | 3.2 | 7.1
COc1cccc(-c2nc(CS(=O)(=O)CC(=O)NCCC(C)C)c(C)o2)c1 | 2.2 | 25 | 4 | 6% | -12 | 1.2 | 1.2
CC(=O)c1sc(NC(=O)c2ccccc2F)nc1-c1ccccc1 | -0.8 | x | 41 | i | -3 | -1.0 | -4.0
O=C(Nc1ccccc1)N1CCC(C(=O)N2CCCC(C(F)(F)F)C2)CC1 (centres undefined) | -4.1 | 1 | 1 | x | 7 | -0.8 | 1.5
C/C(=N\Nc1ncc(Cl)cc1Cl)c1cccs1 | -0.2 | 0 | -1 | 7% | -20 | -2.4 | -0.6
COc1ccc(C/C(N)=N/OC(=O)c2ccco2)cc1OC | -0.2 | -2 | 9 | 14% | -8 | 1.1 | u

Other records follow:
SMILES | LANA-H2A inh | ALR H2O2 inh | Calb FLC | Vif A3G | Beta2AR agonist | HNF4A DNA FP | RanGTP-Impb inh
CCCN(CCC)CCCNC(=O)c1cn(CC)c2ccc(S(=O)(=O)N3CCc4ccccc4C3)cc2c1=O | -1.1 | 1 | -5 | 10% | 7 | 0.7 | 1.0
O=C(Nc1ccc2c(c1)OCCO2)C1CCN(S(=O)(=O)c2ccc3c(c2)OCCO3)CC1 | -10 | -14 | 3 | u | 10 | -3.0 | -1.4
CCOc1ccc(NC(=O)/C(C=Nc2ccccc2)=C(\C)O)cc1 | -2.7 | x | -1 | -3% | 5 | 0.1 | 4.1
CCCCC1(C(=O)OCC)NC(c2ccc(O)cc2)C2C(=O)N(c3ccccc3)C(=O)C21 (centres undefined) | -3.3 | -2 | 2 | 13% | 3 | 0.1 | -0.6
CCc1cccc(C)c1NC(=S)N1CCCC1C(=O)O (centres undefined) | 3.1 | -6 | 10 | u | 3 | 0.3 | -0.2
CCN1CCN(C(=O)c2cc(S(=O)(=O)Nc3ccc(S(C)(=O)=O)cc3)ccc2Cl)CC1 | 2.3 | 0 | 2 | -5% | 0 | -0.8 | 0.2
CCCCCC(=O)Nc1ccc(C(=O)COC(=O)CN2C(=O)NC3(CCCC3)C2=O)cc1 | -2.1 | 0 | 5 | -4% | 4 | 8.4 | 0.1
CC(C)CCOc1ccc(C2(C)NC(=O)NC2=O)cc1 (centres undefined) | 4.1 | -10 | -3 | x | -14 | 3.7 | -3.3
O=C(c1cc(C2CC2)nn1-c1ccccc1)N1CCN(S(=O)(=O)c2c(F)cccc2F)CC1 | -3.5 | 0 | x | -13% | 0 | -5.0 | x
CCNC(=S)N/N=C/c1ccccc1[N+](=O)[O-] | -0.1 | 0 | -31 | -7% | -2 | 3.4 | x
CCc1ccc2[nH]c(=O)c(CN(CC3CCCO3)C(=S)NCc3ccco3)cc2c1 (centres undefined) | -6.2 | -1 | -2 | u | -11 | -2.7 | 0.6
O=C(CSc1n[nH]c(Cc2ccccc2)n1)Nc1ccccc1Br | 1.9 | x | -7 | x | -1 | -1.7 | -2.3
COc1cccc(COC(=O)C2CCN(S(=O)(=O)c3ccc(F)cc3)CC2)c1OC | x | x | x | 2% | 4 | 2.2 | x
CC(C)CCN1CCN(C2CCN(c3ccc4c(c3)OCO4)CC2)CC1CCO (centres undefined) | -8.2 | 99* | -37 | u | -4 | -2.1 | 5.5
N#Cc1c(NCCN)nc(-c2ccco2)c2c1CCCC2 | -9.0 | -3 | -12 | -1% | 3 | 0.1 | 2.2
CC(=O)CSc1ncnc2sc3c(c12)CCC(C)C3 (centres undefined) | 0.4 | -3 | 13 | -4% | -42 | -2.1 | -1.0
O=C(O)c1ccn(Cn2cnc3ccccc32)n1 | -5.3 | 15 | 10 | 4% | -2 | -1.5 | 2.8
O=c1cc(CSc2ccc(Cl)cc2)nc(N2CCOCC2)[nH]1 | -2.8 | x | 25 | 22% | -9 | 0.4 | -0.7

Given with values under each structure: entries from further up
Values in the order – LANA-H2A inh | ALR H2O2 inh | Calb FLC | Vif A3G | Beta2AR agonist | HNF4A DNA FP | RanGTP-Impb inh
CCCN(CCC)CCCNC(=O)c1cn(CC)c2ccc(S(=O)(=O)N3CCc4ccccc4C3)cc2c1=O
→ -1.1 | 1 | -5 | 10% | 7 | 0.7 | 1.0
O=C(O)c1ccn(Cn2cnc3ccccc32)n1
→ -5.3 | 15 | 10 | 4% | -2 | -1.5 | 2.8
O=C(c1cc(C2CC2)nn1-c1ccccc1)N1CCN(S(=O)(=O)c2c(F)cccc2F)CC1
→ -3.5 | 0 | x | -13% | 0 | -5.0 | x

From PubChem BioAssay
